S aureus helic: S. aureus DNA helicase inhibition; purified S. aureus helicase, fluorescence unwinding assay; about half of the hits fall short of the stated cut; inhibition, %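 (tested at about 80 µM)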; hit rate 0.05% among 120,000;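 active = both duplicates at 50% or more, or one of them with a favoured structure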;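 also: 0% = mean of negative control wells and 100% = mean of positive control wells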
MgrA-DNA mod: alters Staphylococcus aureus MgrA binding to DNA; fluorescence polarization; inhibition, %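 (about 10 µg/mL by stock and volumes)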; hit rate 0.13% among 84,000;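 active = above 50% in either of two replicates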;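 also: 0% = protein plus DNA without compound and 100% = DNA alone without protein; higher means less MgrA bound to DNA so lower polarization; one replicate is shown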
An asterisk follows results filed as active; x = no result given. Not all compounds are listed. The share of hits here may be higher or lower than overall.

The line under a structure holds: MgrA-DNA mod	S aureus helic
- COc1ccc(Cc2nnc(SC(C)C(=O)Nc3ccc4c(c3)OCO4)n2C)cc1 (centres undefined)
 : -4.0	-3
- COC(=O)c1ccccc1S(=O)(=O)N1CCC(C(=O)OCN2C(=O)c3ccccc3C2=O)CC1
 : x	-3
- CC(C)(C)OC(=O)N1CCCN(C(=O)Nc2ccc(F)cc2F)CC1
 : 0.1	x
- CCn1c(C)c(CCC(=O)NCCCc2ccccc2)c(=O)n2nc(-c3ccccc3OC)cc12
 : 0.2	3
- Cc1oc2c(F)c(F)c(F)c(F)c2c1C(N)=O
 : -1.0	x
- COc1cc(SC)ccc1C(=O)N1CCCC(C)C1 (centres undefined)
 : -0.8	7
- COC(=O)c1ccc2c(c1)no[n+]2[O-]
 : -4.7	8
- CC1(C)CC(=O)C(CC(=O)N2CCN(S(=O)(=O)c3ccccc3)CC2)C(=O)C1
 : x	1
- CC(=O)Oc1ccccc1OCC(=O)c1ccccc1
 : -2.1	-3
- CC1(C)NC(=O)N(CCSc2ccc(Cl)cc2)C1=O
 : 1.9	5
- CC1Cc2cc(-c3nn(-c4ccccc4)cc3/C=c3\sc4nc(-c5cccs5)nn4c3=O)ccc2O1 (centres undefined)
 : x	-97
- CN1CCCC12NCCc1c2[nH]c2ccccc12 (centres undefined)
 : -2.8	x
- COc1ccc(CN(Cc2ccncc2)C(=O)CCC(=O)O)cc1
 : -3.0	5
- CNc1sc(S(C)(=O)=O)nc1S(=O)(=O)c1ccc(C)cc1
 : 0.2	12
- CC(C)N=C(NS(=O)(=O)c1cccs1)c1ccccc1
 : 0.2	5
- CN(Cc1ccccc1)C(=O)C1CCCN(Cc2cc(Br)ccc2O)C1 (centres undefined)
 : x	5
- O=C(Nc1ccccc1CO)c1ccc(N2C(=O)C3C4C=CC(C4)C3C2=O)cc1 (centres undefined)
 : x	5
- COc1ccccc1C1N(c2ccc(Cl)cc2)C(=O)N2CCCN12 (centres undefined)
 : 0.0	5
- COc1ccc(Cc2nnn(CC(=O)O)n2)cc1
 : x	5
- CC(=O)Oc1ccc2c(=O)c(-c3nc4ccccc4s3)coc2c1
 : x	-12
- N#CC1=C(N)SC(N)=C(C#N)C1c1cc2c(cc1Cl)OCO2
 : 23	-84
- Cc1ccc(OCc2n[nH]c(=S)n2-c2ccccc2)cc1C
 : 2.1	-1
- CCOC(=O)c1cc2ccccc2n1C
 : -3.2	9
- COC(=O)c1ccc2c(c1)NC(=O)C1CCCN21 (centres undefined)
 : 3.1	x
- CCOc1ccc(-n2c(SC(C)CC)nc3c(c2=O)SCC3)cc1 (centres undefined)
 : x	-1
- CCCCn1c(=O)n(C)c(=O)c2c(C(F)(F)F)cc(C)nc21
 : x	-18
- Cc1cc(C)n2nc(Cc3ccccc3)nc2n1
 : 0.1	-2
- CCc1ccc(/C=C2/SC(=S)N(CCC(=O)O)C2=O)cc1
 : 3.6	x
- COc1ccc(C2=NN(CCC(=O)NC3CC3)C(=O)CC2)cc1
 : -1.0	11
- O=C(Nc1cccnc1)OCCN1CCOC1=O
 : 3.2	4
- CO[C@H]1O[C@H](COC(=O)c2ccccc2)[C@@H](O)[C@H](O)[C@H]1OC(=O)c1ccccc1
 : -0.7	x
- C=CCN1CC(O)=C(c2nc3ccccc3[nH]2)C1=N
 : 0.3	2
- O=C(O)CNS(=O)(=O)c1ccccc1C(F)(F)F
 : x	11
- N/C(=N\O)c1ccc(F)cc1
 : x	7
- CC(C)(C)c1ccc(-c2nc3sc4c(c3c(=O)o2)CCCC4)cc1
 : 3.6	x
- CC(=O)N1CCN(C(=O)CCc2nc3ccccc3c(=O)[nH]2)CC1
 : x	7
- COc1ccccc1-c1nn(-c2ccc(C(F)(F)F)cn2)c(=O)o1
 : x	-23
- CC1=CC(C)(C)N(C(=O)CSc2nnc3sc4ccccc4n23)c2ccccc21
 : x	-5
- Cc1ccc2c(c1)N(CC(=O)NC1CCCC1)C(=O)CO2
 : x	4
- O=c1c2ccccc2[nH]c(=S)n1Cc1ccccc1
 : x	0
- COc1c(C#N)sc2ccccc12
 : 1.6	x
- Cc1cc(OCC(=O)Nc2ccccc2N2CCN(C)CC2)cc(C)c1Cl
 : 1.1	22
- COCCCn1c(C)cc(C(=O)CSc2ncnc3ccccc23)c1C
 : x	-17
- S=c1[nH]c2cc3c(cc2[nH]1)OCCO3
 : 6.6	x
- CCn1c(SCC(=O)NCc2ccc(Cl)cc2)nnc1-c1ccccc1OC
 : x	9
- COc1ccc(OCC(=O)Nc2c(Cl)cccc2Cl)cc1
 : -1.4	11
- CCCCCN=C1NN=C(c2ccccc2)C(C(=O)Nc2cccnc2)S1 (centres undefined)
 : x	3
- CC(=O)NC(CO)C(=O)c1ccc([N+](=O)[O-])cc1 (centres undefined)
 : -2.0	x
- CSc1ccc(-c2ccc3c(c2)OCCO3)nn1
 : 16	0
- Cc1[nH]c(=S)[nH]c(=O)c1CCO
 : x	-30
- O=C(C[n+]1cccc(C(=O)Nc2ccccc2)c1)c1ccc(N2C(=O)c3ccccc3C2=O)cc1
 : 0.0	15
- CCC(=O)N(c1n[nH]c(=S)s1)C1CC1
 : x	0
- COc1cc(C2NC(=O)NC(C)=C2C(=O)OCCOc2ccccc2)cc(Br)c1O (centres undefined)
 : -0.8	x
- COC(=O)/C(=C(/O)CSc1nnc(-c2ccco2)n1Cc1ccccc1)c1nc2ccccc2[nH]1
 : x	14
- NS(=O)(=O)c1ccc(CNC(=O)c2ccccc2Oc2ccccc2)cc1
 : -2.4	13
- c1cncc(-c2nn3cnnc3s2)c1
 : x	-5
- N#Cc1ccc(-c2ccc(OC(=O)c3cccnc3)cc2)cc1
 : x	14
- O=C1CC(Cc2ccc(Cl)cc2)C(=O)N1Cc1ccccc1 (centres undefined)
 : x	18
- C=C1SC(Nc2ccc(F)c(Cl)c2)=NC1(CC)CC
 : -1.5	x
- O=C(Cc1n[nH]c(=O)c2ccccc12)OCCCCN1C(=O)c2ccccc2C1=O
 : x	2

Later entries
The line under a structure holds: MgrA-DNA mod	S aureus helic
- Cc1ccc(NC(=O)CCCSc2nc(-c3ccco3)cc(C(F)(F)F)n2)cc1
 : x	-25
- O=C(c1cccs1)N1N=C(c2ccccc2)CC1c1ccccc1[N+](=O)[O-] (centres undefined)
 : 3.9	x
- OC(COc1ccc(Cl)cc1)C(O)C(O)c1cnn(-c2ccccc2)n1 (centres undefined)
 : x	-14
- CC(C)Cn1c(N)c(C(c2cccnc2)N2CCN(c3ccccc3)CC2)c(=O)[nH]c1=O (centres undefined)
 : x	6
- O=C(CC1(O)C(=O)Nc2ccc(Br)cc21)c1ccc2c(c1)OCO2 (centres undefined)
 : 1.6	x
- O=c1nc(Nc2nc(=O)c3ccccc3s2)[nH]c(=O)[nH]1
 : x	-7
- N#CC(CN1CCOCC1)CN1CCOCC1
 : -0.5	x
- C(=N\n1c(-c2ccco2)csc1=NCc1ccccc1)/c1cccnc1
 : x	-2
- O=c1c([N+](=O)[O-])c[nH]n(-c2ccccc2)c1=O
 : -5.1	x
- CCCn1c(CCC(=O)NC2=NCCS2)nc2cc(S(=O)(=O)N(CC)CC)ccc21
 : x	-12
- COc1ccc(-c2csc3nc(-c4ccccc4F)oc(=O)c23)cc1
 : 1.2	x
- Cc1cc(C(=O)Cn2cnnc2C#N)c(C)n1-c1ccc(Br)cc1
 : x	-5
- CCc1ccc(N=Cc2c(O)[nH]c3ccccc23)cc1
 : 0.0	10
- COC(=O)c1cc(=O)c2c(C)nc(-c3ccc(Cl)cc3)nc2[nH]1
 : -7.3	19
- Cc1cc(Cl)ccc1NC(=O)COCC(=O)O
 : 0.1	x
- O=C(O)CC1(CC(=O)N2CCC(Cc3ccccc3)CC2)CCCC1
 : -1.3	-3
- O=[N+]([O-])c1ccc(Sc2cc(Cl)ccc2Cl)nc1
 : -0.9	x
- O=C1CSC(=NC(=O)c2ccc(Cl)c(Cl)c2)N1
 : -0.3	-16
- CC(NC1CCCC1)c1ccccc1 (centres undefined)
 : 0.6	8
- COC(=O)c1ccccc1NC(=O)c1cc2nc(-c3cccs3)cc(C(F)(F)F)n2n1
 : -1.8	x

For reference, some entries already given:
The line under a structure holds: MgrA-DNA mod	S aureus helic
- Cc1cc(Cl)ccc1NC(=O)COCC(=O)O
 : 0.1	x
- O=C(O)CC1(CC(=O)N2CCC(Cc3ccccc3)CC2)CCCC1
 : -1.3	-3
- O=[N+]([O-])c1ccc(Sc2cc(Cl)ccc2Cl)nc1
 : -0.9	x
- O=C1CSC(=NC(=O)c2ccc(Cl)c(Cl)c2)N1
 : -0.3	-16
- CC(NC1CCCC1)c1ccccc1 (centres undefined)
 : 0.6	8
- COC(=O)c1ccccc1NC(=O)c1cc2nc(-c3cccs3)cc(C(F)(F)F)n2n1
 : -1.8	x

Additional results:
The line under a structure holds: MgrA-DNA mod	S aureus helic
- CC(C)CNC(=O)CCN1C(=O)c2ccccc2S1(=O)=O
 : -1.9	5
- O=C1OCc2cccc3cccc1c23
 : x	11
- CSc1c2c(nc3cc(-c4cccs4)nn13)CC(C)(C)CC2=O
 : -2.6	x
- O=C(OCN1C(=O)c2ccccc2C1=O)c1ccc(N2CCCC2=O)cc1
 : x	-3
- CC(=O)CCn1cc([N+](=O)[O-])nc1C
 : -3.2	x
- c1ccc(C2C3=C(Nc4ncnn42)c2ccccc2OC3c2cccs2)cc1 (centres undefined)
 : x	4
- O=C(c1noc2c1CCCC2)N(Cc1ccco1)C1CCCC1
 : x	20
- COCCN1Cc2cccc(C(=O)Nc3c(C)cccc3C)c2C1=O
 : x	32
- CCC(=O)OCC(=O)[C@@]1(OC(=O)CC)[C@@H](C)C[C@H]2[C@@H]3CCC4=CC(=O)C=C[C@]4(C)[C@@]3(Cl)[C@@H](O)C[C@@]21C
 : 0.5	x
- O=C(OCc1ccccc1)Sc1nnc(-c2ccccc2Cl)o1
 : 0.0	-5
- O=S(=O)(NCc1ccc2c(c1)CCO2)c1cccs1
 : -1.6	x
- Oc1cccc(Oc2ncc(C(F)(F)F)cc2Cl)c1
 : 1.4	x
- O=C(O)C1CCCCC1C(=O)Nc1ccc(CN2CCCCC2)cc1 (centres undefined)
 : 1.2	22
- COc1ccc(N2C(=O)C3CC=CCC3C2=O)cc1 (centres undefined)
 : -1.5	9
- Cc1oc2ccc(O)c(CN3CCCCC3)c2c1C(=O)Nc1ccccc1
 : x	20
- S=c1nc(-c2ccccc2)n(CCCn2ccnc2)c2c1CCCC2
 : x	-10
- CCOC(=O)C1CCCN(C(=O)CSc2ccc3ccccc3c2)C1 (centres undefined)
 : -1.4	-9
- O=C1OC(COc2ccc(Br)cc2)CN1c1ccccc1 (centres undefined)
 : -1.5	x
- N#Cc1cc2c(nc1SCC(=O)N1CCCCC1)CCCCC2
 : x	10
- COc1cccc(OC)c1CN(C)C(=O)c1c(C(F)(F)F)ccnc1OC
 : -0.5	x
- c1ccc(CCCNc2nnnn2-c2ccccc2)cc1
 : x	-2
- FC(F)(F)c1ccc(N2CCOCC2)nc1
 : x	-9
- CC1=C(c2ccccc2)S(=O)(=O)N=C1N(C)Cc1ccccc1
 : x	30
- Cc1oc(S(=O)(=O)N2CCOCC2)cc1C(=O)NCCNc1ncccc1C(F)(F)F
 : x	-16
- CC(C)C(c1nnnn1C1CCCC1)N1CCc2ccccc21 (centres undefined)
 : -0.4	-1
- COc1cc(C)cc2oc(=O)cc(C)c12
 : x	7
- O=C1c2ccccc2C(O)(Cc2ccccc2)N1CCCO (centres undefined)
 : 0.6	-11
- COc1ccc(-c2cc(C(=O)NC(C)(C)CO)on2)cc1OC
 : 4.1	6
- COc1cccc(-n2c(N)c(C(N)=O)c3nc4ccccc4nc32)c1
 : x	-8
- COc1ccc(CCN2C(=O)CC(Nc3ccccc3)C2=O)cc1OC (centres undefined)
 : x	-12
- O=S(=O)(Nc1ccc(S(=O)(=O)C(F)F)cc1)C1=Cc2ccccc2CC1
 : x	0
- Cc1cc(Sc2nnnn2-c2ccccc2)nc2ccccc12
 : x	3
- CC1CN(C(=O)c2ccc3c(c2)OCO3)C(C)CN1C(=O)c1ccc2c(c1)OCO2 (centres undefined)
 : x	16
- N#CC(C(=O)Cc1cccs1)c1ccccn1 (centres undefined)
 : x	11
- CCOC(=O)c1ccc(S(=O)(=O)NCC(c2ccccc2)N(C)C)cc1 (centres undefined)
 : x	4
- CN(C)C(CNC(=O)c1ccc2c(c1)OCCO2)c1ccco1 (centres undefined)
 : x	-13
- O=C(O)CC1(CC(=O)Nc2cccnc2)CCCCC1
 : -3.5	x
- O=C(O)C1CCN(C(=O)C2CCC2)CC1
 : -2.0	x
- CSc1ccc(NC(=O)NCC2COc3ccccc3O2)cc1 (centres undefined)
 : 5.3	18
- CCOc1ccccc1NC(=O)CC(C)S(=O)(=O)c1ccc2c(c1)NC(=O)CS2 (centres undefined)
 : x	-48
- CCN1CCn2c3c(c4cc(Br)ccc42)CCCC31 (centres undefined)
 : x	-6
- CCOC(=O)CC1=C(C(=O)OCC)C(c2c(Cl)cccc2Cl)C(C#N)=C(N)O1 (centres undefined)
 : 3.8	x
- O=C(Cn1nc(-c2ccccc2)c2ccccc2c1=O)Nc1cccc(C(F)(F)F)c1
 : 1.0	14
- COc1ccc(N2C(=O)Cc3ccccc3C2=O)cc1
 : x	-18
- CCn1c(=O)cc(OCC(=O)NCc2cccs2)c2ccccc21
 : x	17
- CN1CCN(CCCn2nnc3c(=O)oc4ccccc4c32)CC1
 : x	33
- C=C1SC(Nc2ccc(C(=O)OCC)cc2)=NC12CCCCC2
 : -1.2	x
- Cc1ccc(S(=O)(=O)N(C)c2ccc(OCC(=O)N(C)Cc3ccc(C)o3)cc2)cc1
 : x	-1
- CCn1cc(C(=O)O)c(=O)c2cc(F)c(N3CCN(C(=S)NC(=O)c4c(-c5ccccc5)noc4C)CC3)cc21
 : 5.7	5
- CN(c1ccc(Br)cc1)c1nc(=O)c2cccnc2s1
 : -1.0	x
- CCCCn1cnc2c(sc3nc4c(cc32)COC(C)(C)C4)c1=O
 : x	4

High-throughput results as filed in PubChem BioAssay.
